# From PubChem
# rRNA inh HTS – inhibitors of bacterial rRNA selective over humanized ribosomes. E. coli WT GFP vs humanized-ribosome RFP mutants, fluorescence, 24 h; active compounds read low; DMSO median 0, no signal -100. GFP signal change (wild-type ribosome), % (test concentration not listed). 1.6% of 350,000 active;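 active = significant combined selectivity score with lowered wild-type GFP, culture density cut under 30%, mutant RFP and density less affected; inactive = any of these conditions unmet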; also: one replicate is shown; some compounds called inactive have numbers as strong as hits
# rRNA inh HTS OD600 – recorded beside rRNA inh HTS, whose call it bears; OD600 change, %; measured here: OD600 growth;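 optical density of the mix in the first replicate; 0 = DMSO median and -100 = no signal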
# rRNA inh HTS RFP – further read-out of rRNA inh HTS, marked with its call; RFP signal change, %; measured here: RFP humanized mutant strains;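 first replicate; 0 = DMSO median and -100 = no signal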
# Active calls of the source: *. The list is partial; count on the stated rates, not on these rows.
SMILES,rRNA inh HTS,rRNA inh HTS OD600,rRNA inh HTS RFP
C[C@@H]1CN([C@H](C)CO)C(=O)c2cc(-c3ccc(C#N)cc3)cnc2O[C@@H]1CN(C)CC1CC1,1,10,0.8
C[C@H](CO)N1C[C@H](C)[C@H](CN(C)C(=O)c2ccccc2F)Oc2ncc(C#Cc3ccc(F)cc3)cc2C1=O,-8,-23,13
Cc1ccc2cccc(OC(=O)c3c(F)cccc3Cl)c2n1,-1,5,4.3
C[C@@H]1CN([C@@H](C)CO)C(=O)c2cc(C#Cc3cccnc3)cnc2O[C@@H]1CN(C)Cc1ccncc1,1,6,-0.1
COc1ccccc1-c1ccc2c(c1)O[C@H](CN(C)CC1CC1)[C@H](C)CN([C@@H](C)CO)S2(=O)=O,3,-3,1.5
CN(C)CC(=O)N1CC2(C1)[C@H](c1ccccc1)[C@@H](CO)N2C(=O)C1CCCC1,3,15,-1.0
NC(=O)C1CCCN(C(=O)c2[nH]c(C(F)(F)F)nc2-c2ccccc2)C1 (stereo unspecified),24,16,1.4
CCS(=O)(=O)Nc1ccc2c(c1)C(=O)N(C)C[C@H](OC)[C@@H](C)CN[C@@H](C)CO2,5,7,-1.5
C[C@@H]1CN([C@H](C)CO)C(=O)c2cc(/C=C/c3ccccc3)cnc2O[C@H]1CN(C)C(=O)c1ccccc1,-1,-16,7.0
C[C@@H]1CN([C@H](C)CO)C(=O)c2cc(NS(C)(=O)=O)ccc2O[C@H]1CN(C)C(=O)Nc1ccc(F)cc1,5,12,1.1
COc1ccc2c3c([nH]c2c1)[C@@H](CO)N(C(=O)CC1CC1)CC31CCN(C(=O)c2ccccc2)CC1,-4,-16,0.3
CO[C@@H]1CN(C)C(=O)c2cc(NC(=O)C3CCC3)ccc2OC[C@@H](C)N(C)C[C@@H]1C,0,5,-1.0
C[C@H]1CN([C@@H](C)CO)C(=O)c2cc(C#CC3CCCCC3)cnc2O[C@@H]1CN(C)C,1,-2,-2.1
CC(C)=CC(=O)N1CCC(Oc2cccc(C(=O)NCc3ccccn3)c2)CC1,3,-2,-0.2
C[C@@H]1CN([C@H](C)CO)C(=O)c2cc(NC(=O)Nc3ccc(C(F)(F)F)cc3)ccc2O[C@@H]1CN(C)Cc1ccc(Oc2ccccc2)cc1,0,2,-3.2
COc1ccc(CN(C)C[C@H]2OCCCC[C@@H](C)Oc3ccc(NC(=O)Cc4ccccc4)cc3C(=O)N([C@H](C)CO)C[C@@H]2C)cc1,3,5,-1.6
Cc1ccc(S(=O)(=O)N(C)C[C@@H]2OCCCC[C@@H](C)Oc3ccc(NC(=O)Nc4cccc5ccccc45)cc3C(=O)N([C@H](C)CO)C[C@@H]2C)cc1,7,12,2.7
C[C@@H]1CCCCO[C@H](CN(C)Cc2ccc(C(F)(F)F)cc2)[C@H](C)CN([C@H](C)CO)C(=O)c2cc(NS(=O)(=O)c3ccc(F)cc3)ccc2O1,-1,-11,0.8
C[C@H]1CN([C@@H](C)CO)S(=O)(=O)c2ccc(-c3cccnc3)cc2O[C@H]1CN(C)C,5,22,-2.7
COC(=O)C[C@@H]1OC[C@H](C)N1S(=O)(=O)c1ccc(C)cc1,8,26,5.6
O=C(Cc1cccnc1)N[C@H]1CC[C@H](CCn2cc(-c3ccccc3F)nn2)O[C@@H]1CO,4,4,-1.9
COCC#Cc1cnc2c(c1)C(=O)N([C@H](C)CO)C[C@H](C)[C@H](CN(C)C(=O)Nc1ccccc1F)O2,2,4,-1.9
O=C(C[C@@H]1CC[C@H]2NC[C@H](O)COC[C@@H]2O1)N1CCc2ccccc2C1,1,8,-0.1
N#C[C@@H]1[C@H](c2ccccc2-c2ccccc2F)[C@H](CO)N1C(=O)Cc1ccccc1,-20,-37,-9.1
CCCN(C)C[C@@H]1OCCCC[C@@H](C)Oc2ccc(NS(=O)(=O)c3ccc(F)cc3)cc2C(=O)N([C@H](C)CO)C[C@@H]1C,8,12,-0.7
C[C@H]1CCCCO[C@H](CN(C)C(=O)c2ccccc2)[C@@H](C)CN([C@@H](C)CO)C(=O)c2cc(NS(=O)(=O)c3cccs3)ccc2O1,0,-5,0.9
CC=Cc1ccc2n(c1=O)C[C@@H]1[C@@H](CO)[C@H](C(=O)NCc3ccccc3)[C@H]2N1Cc1ccccc1OC (mixture of isomers),0,-1,6.0
CCC(=O)N1CCC2(CC1)CN(S(C)(=O)=O)[C@H](CO)c1[nH]c3cc(OC)ccc3c12,1,5,-4.3
O=C(C[C@H]1CC[C@@H](NC(=O)C2CCOCC2)[C@H](CO)O1)Nc1nccs1,0,1,-1.9
COc1ccccc1-c1ccc2c(c1)[C@H]1[C@H](CCN1C(=O)C1CCCC1)[C@@H](CO)N2,-2,-20,10
CO[C@@H]1CN(C)C(=O)c2ccc(NS(C)(=O)=O)cc2OC[C@@H](C)N(Cc2cccnc2)C[C@H]1C,0,0,0.6
CC(C)C#Cc1ccc2c(c1)O[C@@H](CN(C)C(=O)CN(C)C)[C@H](C)CN([C@H](C)CO)S2(=O)=O,4,6,-1.8
C[C@@H]1CN([C@H](C)CO)C(=O)c2cc(-c3cccc(C(=O)N(C)C)c3)cnc2O[C@@H]1CN(C)C,4,-5,-4.1
Cc1noc(C)c1S(=O)(=O)Nc1cccc2c1O[C@@H](CN(C)Cc1ccc(C(=O)Nc3ccccc3N)cc1)[C@@H](C)CN([C@@H](C)CO)C2=O,4,9,0.0
CCOC(=O)C1=CCN(S(=O)(=O)c2ccccc2Cl)C1c1ccc(Cl)c(Cl)c1 (stereo unspecified),-5,-14,1.8
O=C(NCc1ccccc1)[C@@H]1[C@@H](CO)[C@@H]2Cn3c(cccc3=O)[C@H]1N2C(=O)Cc1ccccn1,0,-7,-0.2
COc1ccc2c3c(n(C)c2c1)[C@H](CO)N(C(=O)C1CC1)CC31CCN(C(=O)C2CCOCC2)CC1,10,31,1.7
CO[C@H]1CN(C)C(=O)c2ccc(NC(=O)Nc3c(C)noc3C)cc2OC[C@H](C)NC[C@H]1C,4,0,0.6
C[C@H]1CN([C@@H](C)CO)C(=O)c2cc(NC(=O)C3CC3)ccc2O[C@H]1CN(C)Cc1ccc(C(=O)O)cc1,3,7,-1.8
COCC#Cc1ccc2c(c1)O[C@H](CN(C)C(=O)c1ccccc1F)[C@@H](C)CN([C@H](C)CO)S2(=O)=O,-2,-6,-3.5
CCC(=O)Nc1ccc2c(c1)OC[C@@H](C)N(C(=O)COC)C[C@H](C)[C@H](OC)CN(C)C2=O,2,-1,0.8
COc1ccc(NC(=O)N2CCC3(CC2)CN(C(=O)CN2CCOCC2)[C@H](CO)c2[nH]c4cc(OC)ccc4c23)cc1,-2,-3,-1.7
C[C@@H]1CN([C@H](C)CO)S(=O)(=O)c2ccc(-c3cccc(F)c3)cc2O[C@H]1CN(C)CC1CC1,8,-5,4.2
C[C@@H]1CN([C@H](C)CO)C(=O)c2cc(NC(=O)Nc3ccc4c(c3)OCO4)ccc2O[C@H]1CN(C)Cc1ccc(C(F)(F)F)cc1,-5,-15,3.6
C[C@@H]1CN([C@H](C)CO)C(=O)c2cc(NS(=O)(=O)c3ccc(Cl)cc3)ccc2O[C@@H](C)CCCCO[C@@H]1CN(C)Cc1ccc2c(c1)OCO2,5,-10,0.7
CO[C@H]1CN(C)C(=O)c2cc(NC(=O)Cc3ccccc3)ccc2OC[C@H](C)N(CC2CC2)C[C@H]1C,3,0,-2.5
COc1ccc2c3c([nH]c2c1)[C@H](CO)N(C(=O)Nc1ccccc1F)CC31CN(C(=O)c2ccccc2F)C1,2,-4,-2.4
C[C@@H]1CN([C@@H](C)CO)C(=O)c2cc(-c3ccncc3)cnc2O[C@H]1CN(C)C(=O)CN1CCOCC1,8,22,2.8
C[C@@H]1CN([C@H](C)CO)C(=O)c2cc(-c3ccc(F)cc3)cnc2O[C@@H]1CN(C)C(=O)Cc1ccccn1,5,3,-3.1
C[C@@H]1CN([C@@H](C)CO)S(=O)(=O)c2ccc(-c3cccnc3)cc2O[C@H]1CN(C)C(=O)C1CCCCC1,-4,-3,-0.2
CCCNC(=O)N1C[C@@H]2[C@H](c3ccccc31)[C@@H](CO)N2C(=O)c1ccccc1,5,7,0.1
C[C@@H]1CN([C@H](C)CO)C(=O)c2cc(NC(=O)NC3CCCCC3)ccc2O[C@@H](C)CCCCO[C@H]1CN(C)C(=O)Nc1ccc2c(c1)OCO2,-3,-4,-1.3
C[C@@H]1CCCCO[C@H](CN(C)S(=O)(=O)c2cn(C)cn2)[C@@H](C)CN([C@H](C)CO)C(=O)c2cc(N(C)C)ccc2O1,3,14,-3.3
CN(Cc1ccccc1F)c1cc2c(c3c1ccn3C)C1CCC2O1 (stereo unspecified),-4,-16,-7.7
CN(C)C(=O)c1cccc(-c2ccc([C@H]3[C@@H](CO)N4C(=O)CN(C(=O)C5CC5)C[C@@H]34)cc2)c1,7,18,0.9
CO[C@H](CN(C)S(=O)(=O)c1ccc(F)cc1)[C@@H](C)CN(Cc1ccccc1Cl)[C@@H](C)CO,1,4,2.9
O=C(C[C@@H]1CC[C@@H]2[C@H](COC[C@H](O)CN2C(=O)Cc2ccccc2)O1)NC1CCC1,-1,12,1.3
O=C(Nc1cc(F)ccc1F)N[C@@H]1CC[C@H](CCn2cc(C3CCCCC3)nn2)O[C@H]1CO,-8,-11,2.6
COCC(=O)N(C)C[C@H]1[C@H](c2ccccc2)[C@@H](CO)N1C(=O)Cc1cccnc1,1,4,-0.7
C[C@H](CO)N1C[C@H](C)[C@H](CN(C)C)Oc2c(NC(=O)c3ccncc3)cccc2C1=O,-1,2,-2.4

# A second format for part of the listing above:
molecule | rRNA inh HTS | rRNA inh HTS OD600 | rRNA inh HTS RFP
CO[C@H]1CN(C)C(=O)c2cc(NC(=O)Cc3ccccc3)ccc2OC[C@H](C)N(CC2CC2)C[C@H]1C | 3 | 0 | -2.5
COc1ccc2c3c([nH]c2c1)[C@H](CO)N(C(=O)Nc1ccccc1F)CC31CN(C(=O)c2ccccc2F)C1 | 2 | -4 | -2.4
C[C@@H]1CN([C@@H](C)CO)C(=O)c2cc(-c3ccncc3)cnc2O[C@H]1CN(C)C(=O)CN1CCOCC1 | 8 | 22 | 2.8
C[C@@H]1CN([C@H](C)CO)C(=O)c2cc(-c3ccc(F)cc3)cnc2O[C@@H]1CN(C)C(=O)Cc1ccccn1 | 5 | 3 | -3.1
C[C@@H]1CN([C@@H](C)CO)S(=O)(=O)c2ccc(-c3cccnc3)cc2O[C@H]1CN(C)C(=O)C1CCCCC1 | -4 | -3 | -0.2
CCCNC(=O)N1C[C@@H]2[C@H](c3ccccc31)[C@@H](CO)N2C(=O)c1ccccc1 | 5 | 7 | 0.1
C[C@@H]1CN([C@H](C)CO)C(=O)c2cc(NC(=O)NC3CCCCC3)ccc2O[C@@H](C)CCCCO[C@H]1CN(C)C(=O)Nc1ccc2c(c1)OCO2 | -3 | -4 | -1.3
C[C@@H]1CCCCO[C@H](CN(C)S(=O)(=O)c2cn(C)cn2)[C@@H](C)CN([C@H](C)CO)C(=O)c2cc(N(C)C)ccc2O1 | 3 | 14 | -3.3
CN(Cc1ccccc1F)c1cc2c(c3c1ccn3C)C1CCC2O1 (stereo unspecified) | -4 | -16 | -7.7
CN(C)C(=O)c1cccc(-c2ccc([C@H]3[C@@H](CO)N4C(=O)CN(C(=O)C5CC5)C[C@@H]34)cc2)c1 | 7 | 18 | 0.9
CO[C@H](CN(C)S(=O)(=O)c1ccc(F)cc1)[C@@H](C)CN(Cc1ccccc1Cl)[C@@H](C)CO | 1 | 4 | 2.9
O=C(C[C@@H]1CC[C@@H]2[C@H](COC[C@H](O)CN2C(=O)Cc2ccccc2)O1)NC1CCC1 | -1 | 12 | 1.3

# Continued:
SMILES,rRNA inh HTS,rRNA inh HTS OD600,rRNA inh HTS RFP
Cc1noc(C)c1S(=O)(=O)Nc1ccc2c(c1)C(=O)N([C@@H](C)CO)C[C@H](C)[C@H](CN(C)S(=O)(=O)c1ccc(Cl)cc1)OCCCC[C@@H](C)O2,3,13,-4.4
CC1(C(=O)Nc2ccc3ccccc3c2)CCC(=O)N1CCc1c[nH]c2ccccc12 (stereo unspecified),-20,-42,0.2
Cc1ccc(NC(=O)C2(C)CCN2Cc2ccc(OC(C)C)cc2)cc1 (stereo unspecified),-5,-18,-1.6
COCCCn1cc(CN2CC(N3CCN(CCN(C)C)CC3)CS2(=O)=O)nn1 (stereo unspecified),11,5,-2.1
COCC(=O)N[C@H]1CC[C@H](CC(=O)N2CCCCC2)O[C@H]1CO,2,-3,2.9
CCCCCCCCN1C(=O)[C@@H](CC(=O)N2CCN(C(=O)c3ccco3)CC2)C[C@@]2(C(=O)OC)C1=C[C@H](C(C)(C)C)O[C@@H]2C,6,8,0.1
CCCC#Cc1cnc2c(c1)C(=O)N([C@@H](C)CO)C[C@@H](C)[C@@H](CN(C)Cc1ccc(F)cc1)O2,0,-11,0.6
O=C(C1CC1)N1CCCCN2[C@H](C1)[C@H](c1ccc(-c3cccc(F)c3)cc1)[C@@H]2CO,-2,-26,1.9
CCCCOCCCNC(=O)C[C@H]1C[C@@]2(C(=O)OC)C(=C[C@H](C(C)(C)C)O[C@@H]2C)N(Cc2ccc3c(c2)OCO3)C1=O,0,-8,3.6
C[C@H](CO)N1C[C@H](C)[C@@H](CN(C)C(=O)Nc2ccc3c(c2)OCO3)Oc2ccc(NC(=O)Cc3ccccc3)cc2CC1=O,1,3,-1.0
C[C@@H]1CN([C@@H](C)CO)C(=O)Cc2cc(NC(=O)Nc3ccc(F)cc3)ccc2O[C@H]1CN(C)S(=O)(=O)c1ccccc1,-3,-7,3.3
CCCC#Cc1ccc2c(c1)O[C@@H](CN(C)Cc1ccc3c(c1)OCO3)[C@@H](C)CN([C@@H](C)CO)S2(=O)=O,-3,-5,5.5
CN(C)Cc1c(C(C)(C)O)[nH]c2cc(C(F)(F)F)ccc12,1,-7,2.2
CCCNC(=O)C[C@H]1C[C@H]2c3cc(NC(=O)Nc4ccc(OC)cc4)ccc3O[C@H]2[C@H](CO)O1,-3,1,5.1
N#C[C@@H]1[C@H](c2ccc(-c3cccc(F)c3)cc2)[C@@H](CO)N1S(=O)(=O)c1cccc(F)c1,-37,-66,9.7
